TRPV1 potentiator: enhances activation of the human vanilloid receptor TRPV1. Q8NER1. TRPV1-expressing cells, Fluo-8 calcium influx, capsaicin EC20 potentiation; host cell line not named in the record; control for the full effect not named in the record. potentiation, % at 8.33 µM. 0.02% of 320,000 active; active means potentiation above 80%; inconclusive means 30% to 80%; inactive means below 30%; also: 0% is about no effect
Target sequence (Q8NER1 whole entry, looked up): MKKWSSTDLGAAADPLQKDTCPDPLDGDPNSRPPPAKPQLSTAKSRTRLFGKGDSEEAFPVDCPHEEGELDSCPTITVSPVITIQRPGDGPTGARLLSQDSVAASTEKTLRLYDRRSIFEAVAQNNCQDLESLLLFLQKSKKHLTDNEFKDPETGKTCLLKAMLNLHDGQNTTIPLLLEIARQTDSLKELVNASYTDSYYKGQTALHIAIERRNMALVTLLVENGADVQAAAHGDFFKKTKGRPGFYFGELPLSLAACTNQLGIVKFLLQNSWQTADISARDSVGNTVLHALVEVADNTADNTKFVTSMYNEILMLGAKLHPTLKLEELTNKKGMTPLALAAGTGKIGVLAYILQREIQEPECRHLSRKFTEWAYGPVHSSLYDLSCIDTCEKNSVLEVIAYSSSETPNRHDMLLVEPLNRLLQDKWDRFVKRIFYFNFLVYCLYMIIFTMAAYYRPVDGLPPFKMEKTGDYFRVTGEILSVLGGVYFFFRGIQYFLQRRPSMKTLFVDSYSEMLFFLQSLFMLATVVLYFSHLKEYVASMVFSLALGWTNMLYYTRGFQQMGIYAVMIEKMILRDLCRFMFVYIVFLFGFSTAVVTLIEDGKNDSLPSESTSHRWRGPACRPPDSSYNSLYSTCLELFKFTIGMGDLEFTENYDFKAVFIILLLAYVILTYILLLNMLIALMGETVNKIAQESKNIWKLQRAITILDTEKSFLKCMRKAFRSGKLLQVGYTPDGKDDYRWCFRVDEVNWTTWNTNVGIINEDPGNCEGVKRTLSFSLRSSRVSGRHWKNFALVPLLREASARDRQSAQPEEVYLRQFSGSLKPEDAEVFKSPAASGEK
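TRPV1-expressing cells were cultured overnight at 35.5C and loaded with Fluo-8 calcium dye for 40 to 90 min at room temperature. After a 10 s baseline, compound was added and calcium influx was read kinetically for 3 min (ex 480/em 520 nm).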
gsp antagonist: antagonists of gsp mutant (McCune-Albright syndrome); gsp-mutant cells, cAMP HTRF, 30 min; control for the full effect not named in the record; Potency, µM (series often up to 76.9 µM), without a hit: at the top dose activity change, negative = inhibition, usual class: inhibitors; 0.4% of 340,000 active; active = falling curve of any shape with a large fitted effect; inconclusive = falling curve, mostly with a smaller effect; inactive = flat or rising curve; cell line not stated here;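 also: intracellular cAMP measured with PDE inhibitor Ro 20-1724 present during compound exposure; potency is read from the fitted curve at half-maximal effect; % is scaled to controls: 0 for no effect and ±100 for the full control effect; nearly all actives have a fitted effect of over 65% in size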
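HTRF cAMP read-out (cAMP-d2 plus anti-cAMP antibody-K in lysis buffer, 30 min RT). Before lysis, cells are exposed to compounds with […] for 30 min at 37C in DPBS containing Ca/Mg, BSA and Tween 20.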
ClpP mod: qHTS Assay for Activators of ClpP | Potency, µM (highest dose often 57.5 µM), without a hit: at the highest dose activity change, negative = active | purified B. subtilis ClpP, FRET peptide cleavage, 20 min | AID 651965, 2013 | 1.9% of 340,000 active; active = well fitted falling curve with a large enough effect; inconclusive = small, poorly fitted or top-dose-only effect; inactive = no such curve, though single readings can be large or run the other way; also: potency is read from the fitted curve at half-maximal effect; the source files actives as falling curves though it sought activators and does not explain the sign; nearly all actives have a fitted effect of over 65% in size; many hits overshoot -100%
Target sequence (P80244 whole entry, looked up): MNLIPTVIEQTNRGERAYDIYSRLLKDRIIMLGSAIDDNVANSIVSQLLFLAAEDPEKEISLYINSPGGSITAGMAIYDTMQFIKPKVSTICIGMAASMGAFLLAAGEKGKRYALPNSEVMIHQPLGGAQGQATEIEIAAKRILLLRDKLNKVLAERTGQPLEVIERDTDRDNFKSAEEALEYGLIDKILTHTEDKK
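Buffer: 100 mM Tris/HCl pH8, 100 mM KCl, 0.05% low protease BSA, 2.5% glycerol, 0.01% Tween-20. ClpP 10 microg/mL final; 20 min RT; delta FRET normalized to ADEP and DMSO controls.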
Sfp PPTase inh: inhibitors of Bacillus subtilis Sfp phosphopantetheinyl transferase | Biochemical Sfp PPTase activity, qHTS | Potency, µM, inactives show max response, negative = inhibition, usual class: inhibitors | 3.5% of 310,000 active; active = well fitted inhibition curve with a large enough effect; inconclusive = small, poorly fitted or top-dose-only effect, or another doubt; inactive = no such curve, though single readings can be large or run the other way;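 also: the enzyme is Sfp with the accession as filed and its product quenches rhodamine fluorescence; potency is read from the fitted curve at half-maximal effect; 0% = enzyme reaction without inhibitor and -100% = no enzyme wells; top concentration of the series not given in the record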
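After 15 min at room temperature with compound, 15 nM Sfp received 5 uM rhodamine-CoA plus 12.5 uM BHQ-2-ybbR (50 mM Hepes pH 7.6, 10 mM MgCl2). Rate came from the fluorescence difference over 30 min, ex 525/em 598 nm.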
gsp ag: gsp mutant agonism. gsp mutant cells, cAMP HTRF, 30 min; control for the full effect not named in the record. Potency, µM (titrated, usually from 76.9 µM), inactives show at the highest dose activation (cAMP increase), hits mostly activators. 0.13% of 340,000 active. AID 624287; active = well fitted activation curve with a large enough effect; inconclusive = small, poorly fitted or top-dose-only effect, or another doubt; inactive = no such curve, though single readings can be large or run the other way; cell line not stated here;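 also: phosphodiesterase inhibitor Ro 20-1724 added with compounds to block cAMP breakdown; potency is read from the fitted curve at half-maximal effect; nearly all actives have a fitted effect of over 60% in size; about a fifth of the inactives were tested at one dose only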
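Cells in DMEM/10% FBS with G418 were pretreated with compounds in DMSO plus […] (300 uM stock) for 30 min at 37C. cAMP was measured by HTRF (cAMP-d2 plus anti-cAMP antibody-K) after 30 min at room temperature.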
D2 potentiator: potentiates the human D2 dopamine receptor allosterically | P14416 | DiscoveRx D2 beta-arrestin cells, luminescence, 90 min; 100% = 57 uM dopamine signal | potentiation, % (no concentration beside the values) | 0.23% of 360,000 active | AID 624464; active = potentiation of 50% or more; inconclusive = 30% to 50%; inactive = 30% or less;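 also: compound concentration not given in the record; tested on top of an EC20 dose of dopamine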
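PathHunter D2 cells, attached overnight at 37 deg C, received compound in DMSO plus dopamine at EC20 (50 nM final) for 90 min at 37 deg C. Beta-arrestin recruitment was read as luminescence after 1 h with detection reagent at ambient temperature.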
Menin-MLL FL inh: menin-MLL binding inhibition, fluorescein peptide; FP activity change, % at 61.4 µM; 290,000 tested, under 10 active; AID 1766; Fluorescence polarization, fluorescein-MLL peptide displacement from menin; inconclusive = falling polarisation curve, or a change in total fluorescence; inactive = total fluorescence flat and polarisation flat or rising; no compound was filed as active; the % refers to the polarisation; negative = inhibition;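 also: % of control where 0% means no effect; inhibitors lower the polarisation; unlabelled MLL peptide was the positive control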
* marks the source's active call; other numbers are inactive results; [ ] = another dose, or the depositor's remark.

`Cc1nn(Cc2ccc(Cl)cc2Cl)c(Cl)c1C(=O)NC1CCCc2ccccc21` (centres undefined) gave TRPV1 potentiator 22, gsp antagonist 1%, ClpP mod -1.7%, Sfp PPTase inh 6%, gsp ag -32%[inhibitor], D2 potentiator -9 and Menin-MLL FL inh 4.4.
Screening O=[N+]([O-])c1ccc(N2CCOCC2)c2ccncc12 returned TRPV1 potentiator 12, gsp antagonist -15%, Sfp PPTase inh 11%, gsp ag 0%[15.4 µM], D2 potentiator 2 and Menin-MLL FL inh -2.8.
`Cc1cc(C)c(NC2=NCCS2)cc1C` gave ClpP mod 0.6%, gsp ag -43%[inhibitor] and D2 potentiator -10.
`COc1cc2c(cc1OC)-c1c(OC)c(OC)cc3c1[C@H](C2)N(C)CC3` gave TRPV1 potentiator 15, gsp antagonist -2%, ClpP mod 4.1%, Sfp PPTase inh -1%, D2 potentiator -15 and Menin-MLL FL inh 3.9.
Screening CC1CC2(C)C(CCC3C2CCC2(C)C(OP(=O)(N4CC4)N4CC4)CCC32)CC1=O (centres undefined) returned gsp antagonist -23%, ClpP mod -0.6%, gsp ag -8% and D2 potentiator -12.
`COc1ccc(-n2c(CN3CCOCC3)nc3ccccc3c2=O)c(OC)c1` gave TRPV1 potentiator -2, gsp antagonist -5%, ClpP mod -1.2%, Sfp PPTase inh 2%, gsp ag -2%, D2 potentiator 2 and Menin-MLL FL inh -3.6.
CC(C)CCOP(N)(=O)Oc1ccccc1 (centres undefined) was read as TRPV1 potentiator -2, gsp antagonist 2%, ClpP mod 0.6%, Sfp PPTase inh 9%, gsp ag -2%, D2 potentiator -1 and Menin-MLL FL inh 0.0.
CC1(C)C(C(=O)N2CCN(c3ccc(Cl)cc3)CC2)C1(C)C was read as TRPV1 potentiator -31, gsp antagonist -9%, ClpP mod -0.4%, Sfp PPTase inh -3%, gsp ag -1%, D2 potentiator 1 and Menin-MLL FL inh 0.1.
`Cc1ccc(OC(=O)N(C)C[C@@H]2OCc3cnnn3CCCC(=O)N([C@H](C)CO)C[C@H]2C)cc1` gave ClpP mod 0.4%, gsp ag -6% and D2 potentiator 4.
For O=c1[nH]c(=O)n(-c2cccc(F)c2)c(O)c1/C=C1\C=Nc2ccccc21 the results were TRPV1 potentiator -1, gsp antagonist -6%, Sfp PPTase inh -10%, gsp ag -10%, D2 potentiator -2 and Menin-MLL FL inh inconclusive.
Screening COc1cc2c(cc1OC)C13CCN4CC5=CCOC(CC(=O)O)C(C5CC41)C3N2 (centres undefined) returned gsp antagonist 2%, ClpP mod -7.9%, gsp ag 4% and D2 potentiator -4.
For CCCCn1c(O)c(C(C)=Nc2cccc(C(=O)O)c2)c(=O)[nH]c1=O the results were TRPV1 potentiator -3, gsp antagonist -8%, ClpP mod inconclusive, Sfp PPTase inh 2%, gsp ag inconclusive, D2 potentiator -7 and Menin-MLL FL inh 3.5.
`Cc1c(C=C2C(=O)N(C)C(=S)N(C)C2=O)c2ccccc2n1CC(=O)NCC1CCCO1` (centres undefined) gave TRPV1 potentiator -5, gsp antagonist -7%, ClpP mod 0.3%, Sfp PPTase inh 50µM*, gsp ag inconclusive and D2 potentiator -10.
Screening CCC(C)n1c(O)c(C=NCC2CCCO2)c(=O)[nH]c1=S (centres undefined) returned TRPV1 potentiator 3, gsp antagonist -5%, Sfp PPTase inh 18%, gsp ag 3%[15.4 µM], D2 potentiator -1 and Menin-MLL FL inh 6.5.
For COC(=O)[C@@]1(C#N)[C@@H]2C=CC(C(C)=O)=CN2[C@@H](C(N)=O)[C@@H]1c1ccc(F)cc1 the results were TRPV1 potentiator 7, gsp antagonist -4%, Sfp PPTase inh 3%, gsp ag -10%[15.4 µM], D2 potentiator 9 and Menin-MLL FL inh inconclusive.
CCCCCCN=Cc1c(O)n(C)c(=O)n(C)c1=O was read as TRPV1 potentiator -10, gsp antagonist 10%, ClpP mod 2.0%, Sfp PPTase inh 23%, gsp ag inconclusive, D2 potentiator -7 and Menin-MLL FL inh 2.7.
`CCOC(=O)N(C)c1ccc(C(O)(C(=O)OC)C(F)(F)F)cc1` (centres undefined) gave TRPV1 potentiator 24, gsp antagonist -1%, ClpP mod 0.6%, Sfp PPTase inh 12%, gsp ag -4%, D2 potentiator -10 and Menin-MLL FL inh 0.7.
Screening O=C(O)c1ccccc1SSc1ccccc1C(=O)O returned TRPV1 potentiator 9, gsp antagonist 1%, Sfp PPTase inh inconclusive, gsp ag -5%, D2 potentiator -4 and Menin-MLL FL inh -12.
For CCN1C(=O)CC(=O)N(CC)C1=S the results were ClpP mod 0.0%, gsp ag -20% and D2 potentiator 1.
`Cc1ccc(Cn2nnnc2CN2CCC(n3nnc4cc(C)ccc43)CC2)cc1` gave TRPV1 potentiator 8, gsp antagonist 3%, ClpP mod 2.7%, Sfp PPTase inh 0%, gsp ag 11%, D2 potentiator -37 and Menin-MLL FL inh 0.5.
Screening O=P(Oc1ccccc1)(Oc1ccccc1)N1CCN(c2ccc(F)cc2)CC1 returned TRPV1 potentiator -6, gsp antagonist -24%, ClpP mod -0.3%, Sfp PPTase inh inconclusive, gsp ag -5%[15.4 µM], D2 potentiator -11 and Menin-MLL FL inh 4.2.
COC(=O)C1=C(c2c(C)noc2C)C[C@@H]2CC[C@H]1N2C(=O)N1CCCCC1 was read as TRPV1 potentiator -11, gsp antagonist 6%, ClpP mod -0.4%, gsp ag -38%[inhibitor] and D2 potentiator -7.
COC(=O)C1=C(c2ccc(OC)c(OC)c2)C[C@@H]2CC[C@H]1N2C(=O)N1CCCCC1 was read as TRPV1 potentiator 1, gsp antagonist 5%, ClpP mod -1.7% and D2 potentiator -6.
`O=c1c2ccccc2nc(-c2ccccc2Cl)n1-c1cccc(O)c1` gave TRPV1 potentiator -14, gsp antagonist 0%, ClpP mod 0.6%, Sfp PPTase inh 13%, gsp ag inconclusive, D2 potentiator -9 and Menin-MLL FL inh -8.2.
Screening CC[C@H]1CN(C)C[C@@]2(C(=O)OC)Cc3c([nH]c4ccccc34)C(=O)C[C@@H]12 returned gsp antagonist 5%, ClpP mod -2.3% and D2 potentiator 23.
`CC(O)(CS(=O)(=O)c1ccccc1)C(=O)Nc1ccc(C(F)(F)F)cc1` (centres undefined) gave gsp antagonist 9%, ClpP mod 0.4%, Sfp PPTase inh -4%, gsp ag 15%, D2 potentiator -4 and Menin-MLL FL inh -0.8.
`CC#CP(=O)(OCC)C(O)(c1ccccc1)C(F)(F)F` (centres undefined) gave TRPV1 potentiator -27, gsp antagonist 3%, ClpP mod 3.6%, Sfp PPTase inh 11%, gsp ag -12%, D2 potentiator 1 and Menin-MLL FL inh 3.7.
Screening COc1ccc(CNC(C)Cc2cccs2)cc1 (centres undefined) returned TRPV1 potentiator 29, gsp antagonist -6%, ClpP mod -0.5%, Sfp PPTase inh -2%, gsp ag 21%[15.4 µM], D2 potentiator -34 and Menin-MLL FL inh -0.9.
`COc1ccccc1-n1c(O)c(/C=N/NC(=S)Nc2ccccc2)c(=O)[nH]c1=S` gave TRPV1 potentiator -7, gsp antagonist 0%, ClpP mod -3.6%, Sfp PPTase inh 10µM*, gsp ag 3%, D2 potentiator -14 and Menin-MLL FL inh inconclusive.
CCOC(=O)c1c(C)n(Cc2ccc(F)cc2)c2ccc(O)cc12 was read as TRPV1 potentiator -15, gsp antagonist 7%, ClpP mod -4.4%, Sfp PPTase inh 22µM*, gsp ag -8%, D2 potentiator -13 and Menin-MLL FL inh -1.2.
`Cc1cccc(-c2nc3ccc(C(=O)N4CCC5(CC4)OCCO5)cc3nc2-c2cccc(C)c2)c1` gave TRPV1 potentiator -3, gsp antagonist -25%, ClpP mod 3.7%, Sfp PPTase inh -12%, gsp ag 26% and D2 potentiator -2.
`CCCS(=O)(=O)N1CCC(C(=O)N2CCC3(CC2)OCCO3)CC1` gave TRPV1 potentiator 2, gsp antagonist -5%, ClpP mod -1.9%, Sfp PPTase inh 0%, gsp ag 7%, D2 potentiator -8 and Menin-MLL FL inh -0.3.
For Cc1ccc(N)cc1N the results were TRPV1 potentiator -9, gsp antagonist 2%, ClpP mod -0.9% and D2 potentiator -6.
For O=C(O)c1nonc1-c1nonc1C(=O)O the results were TRPV1 potentiator -30, gsp antagonist 7%, ClpP mod 1.4%, Sfp PPTase inh 1%, gsp ag 11%, D2 potentiator -3 and Menin-MLL FL inh 0.0.
For Cn1cccc1CNCCc1ccccc1F the results were TRPV1 potentiator -18, gsp antagonist 8%, ClpP mod -0.6%, Sfp PPTase inh 0%, gsp ag -45%[inhibitor], D2 potentiator -9 and Menin-MLL FL inh -0.2.
Screening Cc1cc(N2CCOCC2)nc2ccc(NC(=O)CCC(=O)N3CCC4(CC3)OCCO4)cc12 returned TRPV1 potentiator -4, gsp antagonist -8%, ClpP mod inconclusive, Sfp PPTase inh 11%, gsp ag -22%, D2 potentiator -13 and Menin-MLL FL inh -3.0.
Oc1ccc2c3c1O[C@H]1c4[nH]c5ccccc5c4C[C@@]4(O)C(C2)N(CC2CC2)CC[C@]314 was read as TRPV1 potentiator 1, Sfp PPTase inh inconclusive and Menin-MLL FL inh 7.3.
Screening CC(=NCc1ccc2c(c1)OCO2)c1c(O)n(-c2ccc(C)cc2)c(=O)[nH]c1=O returned TRPV1 potentiator 12, gsp antagonist -4%, ClpP mod 1.4%, Sfp PPTase inh 6%, gsp ag 7%[15.4 µM], D2 potentiator 1 and Menin-MLL FL inh 5.4.
O=c1c2ccccc2nc(-c2ccoc2)n1-c1ccccc1Cl was read as TRPV1 potentiator -1, gsp antagonist -6%, ClpP mod -3.1%, Sfp PPTase inh 15%, gsp ag 9%, D2 potentiator -5 and Menin-MLL FL inh 0.0.
Screening Cc1cc(-c2ccccc2)cc(C)[n+]1Cc1ccccc1 returned TRPV1 potentiator 11, gsp antagonist -8%, ClpP mod -14% and D2 potentiator -5.
CNC(=O)N(C)c1ccc(C(O)(C(=O)OC)C(F)(F)F)cc1 (centres undefined) was read as TRPV1 potentiator 18, gsp antagonist 10%, ClpP mod -0.6%, Sfp PPTase inh 7%, gsp ag 18%, D2 potentiator 5 and Menin-MLL FL inh -1.2.
Screening O=C(c1cccc(C(F)(F)F)c1)N1C[C@H]2C[C@@H](C1)c1cccc(=O)n1C2 returned TRPV1 potentiator 5, gsp antagonist 6%, ClpP mod -0.7%, Sfp PPTase inh 14%, gsp ag inconclusive, D2 potentiator -1 and Menin-MLL FL inh -0.3.

This is a subset; count on the stated rates, not on these rows.
